Bead autofluor: flagged as autofluorescent in microsphere protease counterscreen. compound autofluorescence counterscreen, microsphere flow cytometry; stronger effect = higher value. fluorescence intensity (test concentration not listed). actives 3.1% (n = 360,000). AID 624483;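 active = at least 3 SD above the mean of all compounds, about 16000 in these data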;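 also: 100 nL of 1 mM stock went into each well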
* marks the source's active call; other numbers are inactive results.

SMILES | Bead autofluor
C[C@@H](NC(=O)[C@@H]1CCCN1C(=O)[C@@H]1CCCN1C(=O)c1cccc2ccccc12)c1ccccc1 | 4186
C[C@@H]1CN([C@@H](C)CO)C(=O)CCCn2cc(nn2)CO[C@H]1CN(C)S(=O)(=O)c1ccc(-c2ccccc2)cc1 | 4000
COC(=O)Cn1c2ccccc2c(=O)n1C(C)CBr (centres undefined) | 5887
Cc1cc(N2CCOCC2)nc2ccc(NC(=O)C3CCCCC3)cc12 | 3514
Cc1c(C(=O)NCCC#N)sc(=O)n1Cc1ccc(C(=O)N(C)C)cc1 | 5681
Cc1noc(C)c1S(=O)(=O)NC(=O)C1(C)CCN1C(=O)c1ccc(C2CCCCC2)cc1 (centres undefined) | 3003
C[C@H](CO)N1C[C@H](C)[C@H](CN(C)C(=O)c2ccccn2)Oc2ncc(Br)cc2C1=O | 2894
CC(C)N1CCC(C)(C(=O)Nc2ccccc2Oc2ccccc2)C1 (centres undefined) | 3593
CCOCCC(=O)Nc1ccc2c(c1)c(=O)n(C)n2Cc1cccc(C(F)(F)F)c1 | 2945
O=C1NC(Cc2ccc(O)cc2)c2nc3cc(F)ccc3c(=O)n2-c2ncccc21 (centres undefined) | 3815
CCOC(=O)C1=C(C)N=c2sc(=Cc3cc(Cl)c(OCC(=O)O)c(OC)c3)c(=O)n2C1c1ccccc1Cl (centres undefined) | 2931
COCCNC(=O)c1cccc2c(-c3ccnn3C)coc12 | 3852
CCCC(=O)N1CCC1(C)C(=O)Nc1cc(OC)ccc1OC (centres undefined) | 2966
CCCCc1c(-c2cccc(F)c2)ncn1CCc1ccccc1OC | 6126
Cc1cc(=O)n2nc(N3CCCC(C(=O)Nc4cccc(C)c4C)C3)sc2n1 (centres undefined) | 8983
COc1cc(-c2cc(=O)c3ccc(O)cc3o2)cc(OC)c1OC | 5742
OC[C@@H]1CN(Cc2ccncc2)C[C@H](n2cnc3c(NC4CC4)ncnc32)O1 | 2959
CC1CCCC(C)N1CCCNC(=O)C1CCCN(S(=O)(=O)N2CCCCC2)C1 (centres undefined) | 3125
O=S(=O)(Nc1ccc2c3c(cccc13)CC2)c1ccccc1 | 3740
Cc1cc2nc(-c3ccc(Cl)cc3)c(CC3CCCCC3)n2c(C)c1Br | 5358
CCOc1ccc(CCNC(=O)C2CCCN(S(=O)(=O)N3CCCCC3)C2)cc1OCC (centres undefined) | 5326
CCCCCC(=O)N1C[C@@H](O)[C@H](n2cc(C3CC3)nn2)C[C@@H]1c1ccc(Cl)cc1 | 3319
CC(C)Cc1ccc(-c2cc3nc(NCc4cccc(Cl)c4)ccn3n2)cc1 | 3701
Cc1cccc(-c2cnc(C(O)c3cc(C)cc(C)c3)[nH]2)c1 (centres undefined) | 3856
CC1(C(=O)NCc2ccc(F)c(F)c2)Cc2c(-c3ccc4c(c3)OCO4)ccnc2O1 (centres undefined) | 2894
C=CCNc1ncnc2c1ncn2[C@H]1CN(Cc2cc(OC)c(OC)c(OC)c2)C[C@@H](CO)O1 | 3492
O=C(COc1ccc(Br)cc1)N(Cc1nnc(-c2ccccc2Cl)o1)C1CC1 | 4094
COc1cc(CNC(=O)C2CC(O)CN2C(=O)Nc2ccccc2)cc(OC)c1OC (centres undefined) | 2812
O=C(NCC(F)(F)F)[C@H]1O[C@@H](n2ccc(=O)[nH]c2=O)[C@H](O)[C@@H]1O | 5664
COc1ccc(-n2c(=S)[nH]c3ccc(C)cc3c2=O)cc1 | 3581
O=C(NCc1ccccc1)c1[nH]c(C(F)(F)F)nc1-c1ccccc1 | 4151
C[C@@H]1COc2cccc(N3CCN(C)CC3)c2S(=O)(=O)N1 | 5400
COc1ccc([C@H]2C[C@@H](n3cc(-c4ccc(F)cc4)nn3)[C@H](O)CN2C(=O)C2CCCCC2)cc1 | 3296
CCOC(=O)[C@]12Cc3cc(C)ccc3[C@H]1N(Cc1ccccc1)C(=O)c1cc(F)c(F)cc12 | 6387
COc1ccc(C#Cc2cnc3c(c2)C(=O)N([C@@H](C)CO)C[C@@H](C)[C@@H](CN(C)CC2CCOCC2)O3)cc1 | 3840
COc1ccc(-c2csc(C(O)c3cccc(OC)c3)n2)cc1 (centres undefined) | 3724
O=C(OCc1ccccc1)C1CCN(S(=O)(=O)c2cccs2)CC1 | 3620
COC[C@H]1CCCN1[C@H]1CS(=O)(=O)N[C@@H]1COCc1ccccc1 | 6785
CCOC(=O)[C@]12CCC=C1N(Cc1ccco1)C(=O)[C@H](CC(=O)NCc1cccc3ccccc13)C2 | 5509
COC(=O)[C@@H](NS(=O)(=O)c1cc(Br)ccc1Br)C(C)C | 3822

5 entries drawn at random from those above, as already listed:
SMILES | Bead autofluor
C[C@@H]1COc2cccc(N3CCN(C)CC3)c2S(=O)(=O)N1 | 5400
COc1ccc([C@H]2C[C@@H](n3cc(-c4ccc(F)cc4)nn3)[C@H](O)CN2C(=O)C2CCCCC2)cc1 | 3296
CCOC(=O)[C@]12Cc3cc(C)ccc3[C@H]1N(Cc1ccccc1)C(=O)c1cc(F)c(F)cc12 | 6387
COc1ccc(-c2csc(C(O)c3cccc(OC)c3)n2)cc1 (centres undefined) | 3724
CCOC(=O)[C@]12CCC=C1N(Cc1ccco1)C(=O)[C@H](CC(=O)NCc1cccc3ccccc13)C2 | 5509

Filtered by structure, the entries above with bromine (five)
SMILES | Bead autofluor
COC(=O)Cn1c2ccccc2c(=O)n1C(C)CBr (centres undefined) | 5887
C[C@H](CO)N1C[C@H](C)[C@H](CN(C)C(=O)c2ccccn2)Oc2ncc(Br)cc2C1=O | 2894
Cc1cc2nc(-c3ccc(Cl)cc3)c(CC3CCCCC3)n2c(C)c1Br | 5358
O=C(COc1ccc(Br)cc1)N(Cc1nnc(-c2ccccc2Cl)o1)C1CC1 | 4094
COC(=O)[C@@H](NS(=O)(=O)c1cc(Br)ccc1Br)C(C)C | 3822

Additional structures:
SMILES | Bead autofluor
CC(=O)c1ccc(-c2cnc3c(NC=O)cc(-c4cccc(C(=O)N(C)C)c4)cn23)cc1 | 4132
Cn1c(NCc2ccc3occc3c2)nc2cc(-c3ccc(F)cc3)sc2c1=O | 4085
CCc1ccc2c(c1)NC(=O)C2(C)Cc1ccc(C(F)(F)F)nc1 (centres undefined) | 3315
CC1CCC(C(C)C)C(NC(=O)c2ccncc2)C1 (centres undefined) | 6260
Nc1ccc(CC(N)c2csc(Nc3nncc4ccccc34)n2)cc1 (centres undefined) | 3485
O=C1CN(C(=O)CN2CCN(S(=O)(=O)c3ccccc3)CC2)c2ccccc2N1 | 3525
COc1ccc(NC(=O)C2(C)CCN2Cc2ccccc2OC(F)F)cc1OC (centres undefined) | 3753
CCOC(=O)C1(C)CCCN(C(=O)c2cc(C#N)cs2)C1 (centres undefined) | 3703
C[C@@H]1CN([C@H](C)CO)C(=O)CCCn2nncc2CO[C@@H]1CN(C)C(=O)Nc1cccc2ccccc12 | 3844
Cc1ccc(-c2nc3ccc(C)cn3c2CC2CCCCC2)cc1 | 6336
Cc1cc2nc(-c3ccccc3Br)n(/C=C(\c3ccccc3)n3c(=O)[nH]c4ccccc43)c2cc1C | 6191
Cc1nn(CC(C)C)c(Cl)c1C(=O)N(C)CC(=O)Nc1ccc(Cl)cc1 | 3961
Cc1[nH]c2ccccc2c(=O)c1CNCc1ccccc1 | 2975
CCCCn1nnnc1C1(C)CCC(=O)N1C1CC1 (centres undefined) | 5750
CC(C)(C)c1ccc(C(=O)N2[C@H](COCc3ccccc3)C=CS2(=O)=O)cc1 | 4331
Clc1ccc(Cn2ncc3c(N4CCN(c5ccccc5)CC4)ncnc32)cc1 | 3452
CC(NS(=O)(=O)c1ccc2[nH]c(=O)[nH]c2c1)c1ccc(F)cc1 (centres undefined) | 3876
COCCNC(=S)N1CCC2CC1c1c(Cl)cccc12 (centres undefined) | 3263
Cc1ccc2nc3n(c(=O)c2c1)-c1cc2ccccc2cc1C(=O)NC3Cc1ccccc1 (centres undefined) | 3020
Cc1ccc(C(=O)NCC(=O)OCC(=O)N(CC(C)C)c2c(N)n(Cc3ccccc3)c(=O)[nH]c2=O)s1 | 3818
CCc1cc(-c2nnn(CCC3COCCO3)c2CC)cc(CC)c1-c1cn(CCc2c[nH]c3ccccc23)nn1 (centres undefined) | 3889
COC(=O)Cn1c2ccccc2c(=O)n1C(C)C | 4706
O=C(/C=C/[C@H]1O[C@@H](n2ccc(=O)[nH]c2=O)[C@H](O)[C@@H]1O)NC1CCN(Cc2ccccc2)C1 (some centres undefined) | 5405
CC(=O)c1sc(NC(=O)CCc2ccccc2)nc1C | 3353
C[C@@H]1CN([C@@H](C)CO)S(=O)(=O)c2ccc(-c3ccc(C(=O)N(C)C)cc3)cc2O[C@@H]1CN(C)Cc1ccccc1C(=O)O | 3600
CCOC(=O)N(C)c1c(CC)nc2c(OCCOc3ccccc3)cccn12 | 4328
CCOC(=O)C(=O)N(C)c1c(CC)nc2c(OCc3ccccc3OC)cccn12 | 3979
CCN(CC)C(=O)C1=C(C)N(Cc2ccccc2)C(=O)C(CC(=O)NCc2cccc3ccccc23)C1 (centres undefined) | 3117
CCOC(=O)C1=C(C)NC(C)=C(C(=O)OCC)C1c1ccc(OC)c(OC)c1 | 3709
CCOC(=O)N1CCN(C(=O)c2ccc3oc(CCc4ccccc4)nc3c2)CC1 | 3879
Fc1cccc(Cc2c(-c3ccc(Cl)cc3)nc3ccc(Cl)cn23)c1 | 8185
C[C@@H]1CN([C@@H](C)CO)S(=O)(=O)c2ccc(-c3ccc(C#N)cc3)cc2O[C@@H]1CN(C)Cc1ccccn1 | 3606
O=C(C[n+]1ccc2ccccc2c1)c1ccc2ccc3ccccc3c2c1 | 6941
CN1OC[C@@H]2CN3C(=O)N(c4cccc5ccccc45)c4ccccc4[C@@H]3C[C@@H]21 | 5390
Cc1ccccc1OCCC(=O)Nc1ccc(S(=O)(=O)N2CCCC2)cc1 | 4140
CC1=C(C(=O)N2CCOCC2)CC(CC(=O)NCc2cccc3ccccc23)C(=O)N1CCCN1CCCC1=O (centres undefined) | 3648
O=C(CC1C(=O)NCCN1Cc1ccccc1)NC1CCCCC1 (centres undefined) | 3799
COc1ccc(OC)c(NC(=O)Nc2nc(C(N)c3ccccc3Cl)cs2)c1 (centres undefined) | 2836
COc1ccc(C(O)C2c3c(cc4c(c3OC)OCO4)CCN2C)c(CO)c1OC (centres undefined) | 5116
CN(Cc1cn(Cc2cccc(Cl)c2)nn1)C1CN(Cc2cn(Cc3cccc(Cl)c3)nn2)S(=O)(=O)C1 (centres undefined) | 5663
CN(Cc1ccc2nsnc2c1)C(=O)C1CCC(=O)N(CCc2ccccc2)C1 (centres undefined) | 3072
CC(=O)NC1CC2CCCC(C1)N2C(=O)Nc1ccc(Cl)cc1 (centres undefined) | 3433
COCCNc1nc(Nc2ccc(C)cc2C)c2sccc2n1 | 3973
COc1cccc(-c2cc(CNC(=O)[C@H]3O[C@@H](n4cnc5c(N)ncnc54)[C@H](O)[C@@H]3O)no2)c1 | 6288
O=C(CSc1ccccc1F)NCC(c1ccco1)N1CCCCC1 (centres undefined) | 3346
CN(C)c1ccc(-c2csc(C(C)(O)c3ccc(F)c(F)c3)n2)cc1 (centres undefined) | 3198
O=c1ccc2c(ccc3ncccc32)o1 | 2891
CCCCc1c(-c2ccc(Br)cc2)ncn1CCc1ccccc1OC | 5929
CC(C)Oc1cc(F)ccc1-c1cc(C(=O)NCc2cccnc2)[nH]n1 | 3933
O=C(CSc1ncccn1)NC1CCCC1 | 3734
(cont.)
SMILES | Bead autofluor
CCOC(=O)[C@]12CCC=C1N(Cc1cccc3ccccc13)C(=O)[C@H](CC(=O)N1CCN(C(=O)c3ccco3)CC1)C2 | 3982
CC1(C(=O)NC2CCCCC2)CCC(=O)N1C1CCN(Cc2ccccc2)CC1 (centres undefined) | 4226
c1ccc(C2=NCCCO2)cc1 | 3571
COc1ccccc1S(=O)(=O)N(C)C[C@@H]1OCc2cn(nn2)CCCC(=O)N([C@@H](C)CO)C[C@H]1C | 3475
CCCCC(=O)N(C)c1c(CC)nc2c(OCc3cc(Cl)cc(Cl)c3)cccn12 | 3571
CC(=O)c1cccc(NC(=O)c2ccc(-c3c(C)noc3C)c3ccoc23)c1 | 3817
O=C(O)c1c(Cl)c(Cl)c(Cl)c(Cl)c1C(=O)OCC1CCCO1 (centres undefined) | 3515
NC(c1ccccc1)c1csc(NC(=O)Nc2ccccc2Oc2ccccc2)n1 (centres undefined) | 3913
Cc1cccc(C)c1-n1nnnc1C(C1CC1)N1CCC2(CC1)C(=O)NCN2c1ccccc1 (centres undefined) | 5663
O=c1c(N=Nc2ccccc2)c[nH]n1-c1ccccc1 | 3720
Cc1noc(C)c1NC(=O)N(C)C[C@H]1OCc2cn(nn2)CCCC(=O)N([C@@H](C)CO)C[C@@H]1C | 3402
Cc1nc2ccc(S(=O)(=O)CCC(=O)NCCc3ccccc3)cc2s1 | 5282
Cc1ccccc1NC(=O)N1Cc2ccccc2-n2nncc2C1 | 3575
COc1cc(CNc2ncnc3c2ncn3[C@H]2CN(Cc3ccc4c(c3)OCO4)C[C@@H](CO)O2)cc(OC)c1OC | 3833
CCCNC(=O)c1cc(C2CCCN(C(=O)c3ccc(NC(C)=O)cc3)C2)on1 (centres undefined) | 3375
COc1cc(OC)cc(-c2c(Sc3ccccc3)c3cc(-c4cnc(N5CCOCC5)nc4)ccc3n2C)c1 | 5576
COc1ccccc1CNc1nc(NCc2ccc(C)cc2C)c2sccc2n1 | 2899
CCCCN(C(=O)COC(=O)C1(c2ccccc2)CC1)c1c(N)n(CCC)c(=O)[nH]c1=O | 3916
COCCN(C(=O)COC(=O)Cc1ccc(Cl)cc1)c1c(N)n(Cc2ccccc2)c(=O)[nH]c1=O | 3046
CC(C)(C)c1cc(NC(=O)C2(C)CCN2C(=O)C2(c3ccccc3)CC2)no1 (centres undefined) | 2862
CC1(Cc2ccc(F)c(Cl)c2)C(=O)Nc2c(Cl)cccc21 (centres undefined) | 2795
COc1ccc2nc(C(c3ccc(C)cc3)n3c(-c4ccccc4Br)nc4ccccc43)[nH]c2c1 (centres undefined) | 5682
NC(Cc1ccc(C(F)(F)F)cc1)c1csc(Nc2ncccn2)n1 (centres undefined) | 4500

A portion of the library, so the mix of outcomes need not match the whole.
